Screening results: PubChem BioAssay, National Center for Advancing Translational Sciences (NCATS)
Menin MLL FP FL: displaces fluorescein MLL peptide from human menin. Fluorescence polarization, fluorescein-MLL peptide displacement from menin. FP activity change, % at 61.4 µM. 290,000 tested, under 10 active; inconclusive = falling polarisation curve, or a change in total fluorescence; inactive = total fluorescence flat and polarisation flat or rising; no compound was filed as active; the % refers to the polarisation; negative = inhibition;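 note: % of control where 0% means no effect; inhibitors lower the polarisation; unlabelled MLL peptide was the positive control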
CtBP-E1A blk: blocks the CtBP interaction with E1A. AlphaScreen GST-E1A/His-CtBP binding, 1536-well; active compounds read low; control for the full effect not named in the record. activity change, % (concentration not given with the values). 340,000 compounds, 0.49% hits. AID 651724; in the data active means activity change below about -65%; inconclusive means about -30% to -65%; inactive means above about -30%; note: % is set by controls: 0 for no effect and ±100 for the full control effect
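GST-E1A and His-tagged CtBP (125 nM each as 5X stock) were preincubated with pin-transferred compound for 2 h at 37 °C in the dark, then glutathione donor and nickel acceptor beads were added for 1 h before AlphaScreen reading.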
TRPV1 PAM: enhances activation of the human vanilloid receptor TRPV1; potentiation, % at 8.33 µM; TRPV1-expressing cells, Fluo-8 calcium influx, capsaicin EC20 potentiation; host cell line not named in the record; control for the full effect not named in the record; Q8NER1; 320,000 compounds, 0.02% hits; active means potentiation above 80%; inconclusive means 30% to 80%; inactive means below 30%; note: 0% is about no effect
Target sequence (Q8NER1 whole entry, looked up): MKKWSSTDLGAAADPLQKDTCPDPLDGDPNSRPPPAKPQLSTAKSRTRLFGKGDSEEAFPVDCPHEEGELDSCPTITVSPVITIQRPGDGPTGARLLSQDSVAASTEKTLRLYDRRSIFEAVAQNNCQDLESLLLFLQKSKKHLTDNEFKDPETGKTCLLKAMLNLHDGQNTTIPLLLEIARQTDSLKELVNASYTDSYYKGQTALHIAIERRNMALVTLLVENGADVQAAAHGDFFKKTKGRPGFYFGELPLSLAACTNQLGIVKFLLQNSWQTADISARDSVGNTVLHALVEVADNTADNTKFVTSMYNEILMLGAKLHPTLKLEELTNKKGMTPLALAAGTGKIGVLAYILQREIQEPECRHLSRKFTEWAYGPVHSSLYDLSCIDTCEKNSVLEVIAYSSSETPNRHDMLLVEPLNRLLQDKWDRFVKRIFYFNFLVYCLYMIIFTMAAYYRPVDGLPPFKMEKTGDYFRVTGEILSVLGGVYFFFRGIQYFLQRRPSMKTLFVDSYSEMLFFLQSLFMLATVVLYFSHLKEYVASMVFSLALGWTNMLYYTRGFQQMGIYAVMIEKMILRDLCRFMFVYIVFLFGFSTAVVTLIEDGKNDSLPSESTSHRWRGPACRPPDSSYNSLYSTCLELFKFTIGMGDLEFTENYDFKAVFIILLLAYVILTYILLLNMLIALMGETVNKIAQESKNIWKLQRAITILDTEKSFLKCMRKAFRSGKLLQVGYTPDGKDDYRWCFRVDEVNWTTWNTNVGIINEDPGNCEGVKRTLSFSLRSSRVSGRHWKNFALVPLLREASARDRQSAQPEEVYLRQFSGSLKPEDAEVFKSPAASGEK
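Cells expressing TRPV1 were dye-loaded with Fluo-8 and read kinetically: 10 s baseline, 3 min after compound (agonist portion), then 2 min after EC20 capsaicin (allosteric enhancer portion). Calcium-bound dye fluorescence at 480/520 nm.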
ClpP mod: qHTS Assay for Activators of ClpP; purified B. subtilis ClpP, FRET peptide cleavage, 20 min; 340,000 compounds, 1.9% hits; Potency, µM (doses to about 57.5 µM), inactives show at the highest dose activity change, negative = active; active = well fitted falling curve with a large enough effect; inconclusive = small, poorly fitted or top-dose-only effect; inactive = no such curve, though single readings can be large or run the other way; note: potency is the fitted concentration of half-maximal effect; the source files actives as falling curves though it sought activators and does not explain the sign; nearly all actives have a fitted effect of over 65% in size; many hits overshoot -100%
Target sequence (P80244 whole entry, looked up): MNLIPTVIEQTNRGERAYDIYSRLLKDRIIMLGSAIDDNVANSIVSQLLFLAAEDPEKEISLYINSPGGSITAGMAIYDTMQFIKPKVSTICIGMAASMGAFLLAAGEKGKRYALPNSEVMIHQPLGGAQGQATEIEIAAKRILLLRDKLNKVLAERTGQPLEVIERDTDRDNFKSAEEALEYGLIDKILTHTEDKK
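ClpP 10 microg/mL final, pH 8 Tris/KCl buffer with BSA, glycerol, Tween-20; compound pinned in; FRET-FV substrate; RT 20 min; Ex320/Em430; ΔFRET vs ADEP 5.8 microM, DMSO, no enzyme.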
gsp ag: gsp mutant agonism. Potency, µM (highest dose often 76.9 µM), without a hit: at the top dose activation (cAMP increase), most hits filed as activators. 340,000 compounds, 0.13% hits. gsp mutant cells, cAMP HTRF, 30 min; control for the full effect not named in the record; active = well fitted activation curve with a large enough effect; inconclusive = small, poorly fitted or top-dose-only effect, or another doubt; inactive = no such curve, though single readings can be large or run the other way; cell line not stated here;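 note: phosphodiesterase inhibitor Ro 20-1724 added with compounds to block cAMP breakdown; potency is the fitted concentration of half-maximal effect; nearly all actives have a fitted effect of over 60% in size; about a fifth of the inactives were tested at one dose only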
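Cells stably selected in G418 were plated at 2000/well, grown 16-24 hr, then given compounds in DMSO with the PDE inhibitor […] (300 uM solution added) for 30 min at 37C; cAMP was read by HTRF.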
gsp antagonist: gsp mutant antagonism; gsp-mutant cells, cAMP HTRF, 30 min; control for the full effect not named in the record; Potency, µM (titrated, usually from 76.9 µM), for inactives: at the highest dose activity change, negative = inhibition, hits mostly inhibitors; 340,000 compounds, 0.4% hits; active = falling curve of any shape with a large fitted effect; inconclusive = falling curve, mostly with a smaller effect; inactive = flat or rising curve; cell line not stated here;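 note: intracellular cAMP measured with PDE inhibitor Ro 20-1724 present during compound exposure; potency is the fitted concentration of half-maximal effect; % is set by controls: 0 for no effect and ±100 for the full control effect; nearly all actives have a fitted effect of over 65% in size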
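HTRF cAMP read-out (cAMP-d2 plus anti-cAMP antibody-K in lysis buffer, 30 min RT). Before lysis, cells are exposed to compounds with […] for 30 min at 37C in DPBS containing Ca/Mg, BSA and Tween 20.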
Sfp inh: Sfp phosphopantetheinyl transferase inhibition | Biochemical Sfp PPTase activity, qHTS | Q9F4F7 | Potency, µM, for inactives: max response, negative = inhibition, usual class: inhibitors | AID 1490 | 310,000 compounds, 3.5% hits; active = well fitted inhibition curve with a large enough effect; inconclusive = small, poorly fitted or top-dose-only effect, or another doubt; inactive = no such curve, though single readings can be large or run the other way;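 note: the enzyme is Sfp with the accession as filed and its product quenches rhodamine fluorescence; potency is the fitted concentration of half-maximal effect; 0% = enzyme reaction without inhibitor and -100% = no enzyme wells; top concentration of the series not given in the record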
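With Hepes-Na pH 7.6 buffer containing 10 mM MgCl2, Sfp (15 nM) modified BHQ-2-YbbR (12.5 uM) using rhodamine-CoA (5 uM). Two reads 30 minutes apart at 525/598 nm yielded each well's rate.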
Active calls of the source: *; ? = inconclusive; . = no result given; & = joins results of further samples; [ ] = remark or other dose.

SMILES | Menin MLL FP FL | CtBP-E1A blk | TRPV1 PAM | ClpP mod | gsp ag | gsp antagonist | Sfp inh
CC(C)[C@H](NC(=O)[C@@H]1CSC2c3ccccc3C(=O)N21)C(=O)NCC1CCCO1 (stereo partly drawn) | . | 2.0 | 8.2 | 2.2% | 34.3% | 11.1% | 3.4%
COc1ccc(S(=O)(=O)Nc2ccc3c(c2)n(C)c(=O)n3C)cc1F | . | -9.1 | 6.3 | -3.2% | -1.1% | -13.5% | 9.3%
Fc1ccc2c(c1)C(c1ccncc1)=NNC(c1cccnc1)=N2 | 1.5 | -3.4 | -16.9 | -1.0% | 4.3% | -25.5% | 8.0%
COC(=O)c1sccc1NC(=O)c1c(Cl)cccc1Cl | -1.4 | . | ? | -3.6% | 21.7% | -5.9% | 0.5%
CCOC(=O)Nc1cccnc1Sc1ccc(Cl)cc1 | . | 0.7 | . | . | ? | -5.4% | .
CCc1ccc(N(C(=O)Cc2cccs2)C(C(=O)NC2CCCCC2)c2cn(C)nc2C)cc1 (stereo not drawn) | 2.1 | 3.8 | -16.6 | -0.7% | -4.2% | -10.2% | 11.9%
CCOC(=O)CCC(=O)O[C@H]1[C@H](O[C@@H]2[C@@H](C)[C@H](O[C@H]3C[C@@](C)(OC)[C@@H](O)[C@H](C)O3)[C@@H](C)C(=O)O[C@H](CC)[C@@](C)(O)[C@H](O)[C@@H](C)C(=O)[C@H](C)C[C@@]2(C)O)O[C@H](C)C[C@@H]1N(C)C | -0.4 | -14.0 | -1.6 | -2.8% | . | 0.5% | -14.9%
CN(c1ccccc1)S(=O)(=O)c1cccc(NC(=O)c2cc(=O)c3ccccc3o2)c1 | -0.3 | -0.5 | 2.6 | . | 16.4% | 39.8µM* | 10.9%
CSCCC(NC(=O)c1ccccc1Cl)C(=O)NCCOc1ccccc1 (stereo not drawn) | . | -3.0 | -7.6 | -2.8% | -2.8%[15.4 µM] | 6.5% | .
S=C(NCc1ccc(Cl)cc1Cl)Nc1ccccc1 | -0.3 | -2.1 | -2.2 | -0.1% | 11.5%[15.4 µM] | ? | 2.1%

An excerpt of these results, as tab-separated lines:
SMILES	Menin MLL FP FL	CtBP-E1A blk	TRPV1 PAM	ClpP mod	gsp ag	gsp antagonist	Sfp inh
CN(c1ccccc1)S(=O)(=O)c1cccc(NC(=O)c2cc(=O)c3ccccc3o2)c1	-0.3	-0.5	2.6	.	16.4%	39.8µM*	10.9%
CCOC(=O)Nc1cccnc1Sc1ccc(Cl)cc1	.	0.7	.	.	?	-5.4%	.

Carrying on.
SMILES | Menin MLL FP FL | CtBP-E1A blk | TRPV1 PAM | ClpP mod | gsp ag | gsp antagonist | Sfp inh
CCC(=O)N1c2ccc(S(=O)(=O)N3CCN(c4cc(C)ccc4C)CC3)cc2CC1C (stereo not drawn) | . | 3.8 | 1.5 | -5.7% | -2.0% | 1.1% | 12.2%
CNC(=O)C(=O)Nc1ccc2c(c1)N(S(=O)(=O)c1cccs1)CCC2 | . | -2.8 | -16.2 | -7.3% | -13.3% | 3.4% | .
COC(=O)[C@H](CCSC)NC(=O)N1CCN(Cc2ccccc2)CC1 | 0.3 | 2.1 | 0.6 | -1.0% | 22.6% | 2.9% | 18.7%
COc1ccc(CCNC(=O)c2ccc3c(c2)N(Cc2ccc(F)cc2)CCS3)c(OC)c1 | . | -20.4 | -6.3 | 3.1% | 7.08µM* | -15.3% | 3.7%
Cc1ccc(-c2nc(SCC(=O)NCC3CCCO3)c(-c3ccc(Cl)cc3)[nH]2)cc1 (stereo not drawn) | 1.6 | 1.8 | -8.1 | -20.7% | 1.1% | -23.7% | -1.6%
COc1ccc(C(=O)CSc2nnc(C3CCCCC3)n2N)c(OC)c1 | 6.7 | 4.7 | 12.4 | -0.7% | ? | -5.3% | -3.0%
Cn1c(=O)c2c(nc(SCC(=O)NCc3ccc4c(c3)OCO4)n2Cc2ccccc2)n(C)c1=O | -1.0 | 10.5 | 2.2 | -3.3% | 23.2% | 2.2% | 3.6%
COc1ccccc1S(=O)(=O)Nc1ccc2cn[nH]c2c1 | 1.7 | -2.1 | 7.8 | -1.9% | 4.2% | 7.8% | 8.3%
O=C(CN1CCN(S(=O)(=O)c2ccc(F)cc2)CC1)Nc1ccc(Cl)c(C(F)(F)F)c1 | 0.6 | 5.0 | 11.3 | -0.4% | -13.5% | -18.2% | 16.0%
COc1ccc(CNC(=O)[C@H](C)NC(=O)C2CCN(S(=O)(=O)c3ccccc3)CC2)cc1 | . | 0.6 | -15.5 | 0.8% | 14.2% | 0.6% | 9.2%
O=C(N/N=C/c1c(Nc2cccc(C(F)(F)F)c2)nc2ccccn2c1=O)c1ccccc1[N+](=O)[O-] | 1.2 | 11.0 | 2.8 | -1.3% | -11.9%[15.4 µM] | 8.4% | -5.8%
CN1CCN(c2ccc(NC(=S)NC(=O)c3cccc4ccccc34)cc2)CC1 | 2.8 | . | -2.8 | 3.2% | -6.5% | 13.7% | -24.9%
CCOC(=O)c1c(C)[nH]c(C)c1C(=O)COC(=O)c1nc2nccc(C)n2n1 | 10.9 | 5.6 | 4.8 | 0.9% | -2.4%[15.4 µM] | 13.5% | 7.7%
COCC(=O)Nc1ccc(S(=O)(=O)NCCc2ccccc2)cc1 | 1.4 | -4.8 | 1.1 | -1.5% | 2.5% | -3.6% | 0.4%
COC(=O)CSc1cccc2c1C(=O)CC2c1ccccc1 (stereo not drawn) | -1.4 | . | -10.6 | -4.1% | -60.4%[inhibitor] | -14.6% | 5.8%
O=C(CCn1cccc1)Nc1nccs1 | 1.8 | -0.1 | -1.4 | -0.2% | ? | 0.1% | 1.5%
Cc1cc(C)n2nc(SCCCC(=O)c3ccc(F)cc3)nc2n1 | -2.8 | 15.6 | -0.4 | 0.2% | -7.3%[15.4 µM] | 13.1% | ?
CNC(=O)c1c[nH]n2c(=O)c(Cc3ccccc3F)c(C)nc12 | -0.1 | -15.6 | . | 5.2% | 14.6% | 11.2µM* | 8.5%
Cc1ccc(S(=O)(=O)N(C)CC(=O)Nc2cc(C)ccn2)cc1 | . | -12.4 | -12.8 | . | 0.7%[15.4 µM] | 2.0% | .
OC1NC(=S)N(c2ccccc2)C1O (stereo not drawn) | 7.4 | . | -2.8 | -0.4% | -0.8% | 2.4% | 4.2%
Cc1ccc(-n2c(SCC(=O)NCC3CCCO3)nnc2-c2ccoc2C)cc1 (stereo not drawn) | -1.0 | -1.1 | . | -0.4% | 9.4% | -1.1% | 15.8%
CCCCN(C(=O)c1nn(C)c(=O)c2ccccc12)c1c(N)n(CC(C)C)c(=O)[nH]c1=O | . | 0.0 | 8.4 | 0.8% | -39.6%[inhibitor] | 2.4% | .
O=C(c1ccccc1Cl)N1CCNCC1 | -1.7 | 2.5 | 4.9 | 1.2% | -5.0% | -4.5% | 11.4%
Cc1ccc(F)cc1NC(=O)CSc1ncccn1 | 7.0 | 3.8 | 1.7 | 1.6% | -1.4% | 18.1% | 4.3%
CCCn1cc(S(=O)(=O)c2ccc(OC)cc2)c(=O)c2cc(OCC)ccc21 | . | -3.8 | -17.7 | 3.9% | -24.8% | -9.1% | 1.4%
CCN(CC)C(=O)COc1cc(C)cc2oc(=O)cc(-c3ccccc3)c12 | 13.8 | 17.1 | -3.9 | -7.4% | -6.9% | -5.8% | -2.6%
O=C(CN(Cc1ccccc1)S(=O)(=O)c1ccc(S(=O)(=O)N2CCOCC2)cc1)Nc1ccccc1 | 3.4 | -12.0 | -16.9 | -3.0% | -7.4% | 3.2% | 6.8%
Cc1cc(C)c(C(=O)NNC(=O)c2cccnc2)c(C)c1 | 3.4 | -1.0 | 3.7 | . | 24.6%[15.4 µM] | 1.1% | 22.8%
O=C(NCCc1ccccc1)NC1CCCCC1 | -0.7 | -1.3 | -3.0 | -2.2% | 1.0% | 11.5% | 13.1%
Cc1cc(C)cc(NC(=O)CSc2nc(N)c(NC(=O)c3cccs3)c(=O)[nH]2)c1 | 0.9 | 0.0 | ? | -1.6% | ? | -4.7% | -2.6%
COc1cccc(NC(=O)COC(=O)/C=C/c2c(C)nn(-c3ccccc3)c2C)c1 | . | ? | -8.7 | -1.8% | -3.1% | -19.3% | .
Nc1nonc1-c1nc2ccccc2n1CC(=O)N/N=C/c1ccc(-c2ccccc2C(=O)O)o1 | ? | . | 19.9 | . | -3.7%[15.4 µM] | 16.3% | ?
COc1cccc(NC(=O)CSc2c3c(nc4ccccc24)CCCC3)c1 | 0.3 | -1.7 | -24.7 | -1.1%&3.8% | -3.7% | ? | 1.7%
COc1ccccc1N1CCN(CC(=O)NCc2ccc(Cl)cc2)CC1 | 3.2 | . | -22.2 | 20.8% | -19.5% | 3.2% | 13.2%
CCCCNC(=O)/C(C#N)=C/c1ccc(C(=O)OC)cc1 | 0.6 | 0.5 | -3.5 | . | 8.4%[15.4 µM] | 13.5% | 3.8%
Cc1ccc(C(C(=O)NCC2CCCO2)N(C(=O)c2snc(C(N)=O)c2N)c2ccc(F)cc2)o1 (stereo not drawn) | 5.0 | 2.2 | 1.0 | . | -2.0% | -15.4% | 17.6%
CN(Cc1ccc(OCC(O)CN(C)Cc2ccccc2)cc1)Cc1nccn1C (stereo not drawn) | 0.4 | 1.4 | -7.0 | -1.1% | ? | 18.1% | -2.7%
COc1ccc(-c2cc(C(=O)N/N=C/c3cc(OC)c(OC)cc3OC)c3ccccc3n2)cc1 | . | 10.4 | . | -6.6% | -4.1%[15.4 µM] | 3.5% | .
COC(=O)c1cc(COC(=O)CNC(=O)c2cccc(C)c2)oc1C | . | . | -5.6 | -0.3% | -17.0% | -3.5% | .
O=C(CCC(=O)Nc1ccccc1)N/N=C/c1ccco1 | -0.2 | 0.6 | -1.3 | -4.5% | -56.4%[inhibitor] | -1.8% | 12.5%
Cc1cc(C)n2nc(C(=O)NCc3ccco3)cc2n1 | -4.5 | -1.3 | 6.9 | . | 9.8%[15.4 µM] | -5.6% | 13.0%
Cn1c(SCC(=O)N2CCOCC2)nc2sc3c(c2c1=O)CCCC3 | 0.8 | 2.6 | -13.4 | -0.3% | -25.6% | -2.5% | -3.0%

Compounds as they come; overall some 5.3% were active at least once.
